Menin-MLL FL inh: displaces fluorescein MLL peptide from human menin; FP activity change, % at 61.4 µM; Fluorescence polarization, fluorescein-MLL peptide displacement from menin; 290,000 tested, under 10 active; inconclusive = falling polarisation curve, or a change in total fluorescence; inactive = total fluorescence flat and polarisation flat or rising; no compound was filed as active; the % refers to the polarisation; negative = inhibition;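 further: % of control where 0% means no effect; inhibitors lower the polarisation; unlabelled MLL peptide was the positive control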
Sfp inh: Sfp phosphopantetheinyl transferase inhibition; Potency, µM, inactives show max response, negative = inhibition, most hits filed as inhibitors; Biochemical Sfp PPTase activity, qHTS; AID 1490; 310,000 compounds, 3.5% hits; active means well fitted inhibition curve with a large enough effect; inconclusive means small, poorly fitted or top-dose-only effect, or another doubt; inactive means no such curve, though single readings can be large or run the other way;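 further: the enzyme is Sfp with the accession as filed and its product quenches rhodamine fluorescence; potency means the concentration at half of the fitted maximal effect; 0% = enzyme reaction without inhibitor and -100% = no enzyme wells; top concentration of the series not given in the record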
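Fluorescence-quenching assay with 15 nM Sfp, 5 uM rhodamine-CoA and 12.5 uM BHQ-2-labelled ybbR peptide in pH 7.6 Hepes/MgCl2 buffer. Enzyme was pre-incubated with compound for 15 min at room temperature. Rate was taken from the 30-min fluorescence change (525/598 nm).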
gsp antagonist: antagonists of gsp mutant (McCune-Albright syndrome); gsp-mutant cells, cAMP HTRF, 30 min; control for the full effect not named in the record; Potency, µM (doses to about 76.9 µM), inactives show top-dose activity change, negative = inhibition, actives largely listed as inhibitors; 340,000 compounds, 0.4% hits; AID 624288; active = falling curve of any shape with a large fitted effect; inconclusive = falling curve, mostly with a smaller effect; inactive = flat or rising curve; cell line not stated here;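 further: intracellular cAMP measured with PDE inhibitor Ro 20-1724 present during compound exposure; potency means the concentration at half of the fitted maximal effect; on the % scale 0 is the no-effect control and ±100 the full control effect; nearly all actives have a fitted effect of over 65% in size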
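HTRF cAMP read-out (cAMP-d2 plus anti-cAMP antibody-K in lysis buffer, 30 min RT). Before lysis, cells are exposed to compounds with […] for 30 min at 37C in DPBS containing Ca/Mg, BSA and Tween 20.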
TRPV1 potentiator: enhances activation of the human vanilloid receptor TRPV1 | Q8NER1 | TRPV1-expressing cells, Fluo-8 calcium influx, capsaicin EC20 potentiation; host cell line not named in the record; control for the full effect not named in the record | potentiation, % at 8.33 µM | 320,000 compounds, 0.02% hits | AID 540277; active means potentiation above 80%; inconclusive means 30% to 80%; inactive means below 30%; further: 0% is about no effect
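Cells expressing TRPV1 were dye-loaded with Fluo-8 and read kinetically: 10 s baseline, 3 min after compound (agonist portion), then 2 min after EC20 capsaicin (allosteric enhancer portion). Calcium-bound dye fluorescence at 480/520 nm.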
gsp ag: agonists of gsp mutant (McCune-Albright syndrome); gsp mutant cells, cAMP HTRF, 30 min; control for the full effect not named in the record; Potency, µM (top dose mostly 76.9 µM), inactives show at the top dose activation (cAMP increase), hits mostly activators; 340,000 compounds, 0.13% hits; active = well fitted activation curve with a large enough effect; inconclusive = small, poorly fitted or top-dose-only effect, or another doubt; inactive = no such curve, though single readings can be large or run the other way; cell line not stated here;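 further: phosphodiesterase inhibitor Ro 20-1724 added with compounds to block cAMP breakdown; potency means the concentration at half of the fitted maximal effect; nearly all actives have a fitted effect of over 60% in size; about a fifth of the inactives were tested at one dose only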
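Cells stably selected in G418 were plated at 2000/well, grown 16-24 hr, then given compounds in DMSO with the PDE inhibitor […] (300 uM solution added) for 30 min at 37C; cAMP was read by HTRF.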
D2 potentiator: human D2 receptor positive allosteric modulation | P14416 | DiscoveRx D2 beta-arrestin cells, luminescence, 90 min; 100% = 57 uM dopamine signal | potentiation, % (test concentration not listed) | 360,000 compounds, 0.23% hits | AID 624464; active = potentiation of 50% or more; inconclusive = 30% to 50%; inactive = 30% or less;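 further: compound concentration not given in the record; tested on top of an EC20 dose of dopamine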
Target sequence (P14416 whole entry, looked up): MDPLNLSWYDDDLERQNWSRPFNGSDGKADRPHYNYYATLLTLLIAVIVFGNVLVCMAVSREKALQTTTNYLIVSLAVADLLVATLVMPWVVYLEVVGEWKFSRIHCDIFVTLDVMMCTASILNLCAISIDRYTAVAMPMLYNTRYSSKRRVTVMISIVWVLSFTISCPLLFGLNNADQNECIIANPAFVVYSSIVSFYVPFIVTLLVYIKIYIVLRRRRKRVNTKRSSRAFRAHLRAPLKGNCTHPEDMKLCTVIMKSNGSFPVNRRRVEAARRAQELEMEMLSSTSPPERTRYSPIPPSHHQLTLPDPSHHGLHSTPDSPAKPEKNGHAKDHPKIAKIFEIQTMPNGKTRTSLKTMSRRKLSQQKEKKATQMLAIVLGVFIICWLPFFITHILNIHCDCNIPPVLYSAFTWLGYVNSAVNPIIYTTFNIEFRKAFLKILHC
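PathHunter beta-arrestin assay in DiscoveRx D2 cells. Compounds were added with an EC20 of dopamine (50 nM final) for 90 min at 37 deg C. Luminescence was read 1 h after detection reagent, with 57 uM dopamine as the EC100 control.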
ClpP mod: qHTS Assay for Activators of ClpP. 340,000 compounds, 1.9% hits. purified B. subtilis ClpP, FRET peptide cleavage, 20 min. Potency, µM (titrated, usually from 57.5 µM), for the others: at the top dose activity change, negative = active. ATP-dependent Clp protease proteolytic subunit (Bacillus subtilis (strain 168)), P80244. AID 651965, 2013; active = well fitted falling curve with a large enough effect; inconclusive = small, poorly fitted or top-dose-only effect; inactive = no such curve, though single readings can be large or run the other way; further: potency means the concentration at half of the fitted maximal effect; the source files actives as falling curves though it sought activators and does not explain the sign; nearly all actives have a fitted effect of over 65% in size; many hits overshoot -100%
Target sequence (P80244 whole entry, looked up): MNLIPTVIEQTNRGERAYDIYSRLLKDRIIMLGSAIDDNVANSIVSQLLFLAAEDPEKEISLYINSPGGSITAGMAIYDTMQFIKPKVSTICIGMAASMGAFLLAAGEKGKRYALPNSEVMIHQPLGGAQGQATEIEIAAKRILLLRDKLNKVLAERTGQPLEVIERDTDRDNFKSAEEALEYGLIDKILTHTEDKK
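ClpP 10 microg/mL final, pH 8 Tris/KCl buffer with BSA, glycerol, Tween-20; compound pinned in; FRET-FV substrate; RT 20 min; Ex320/Em430; ΔFRET vs ADEP 5.8 microM, DMSO, no enzyme.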
* marks the source's active call; other numbers are inactive results; ? = inconclusive; nt = no result given; & = joins results of further samples; [ ] = remark or other dose. An unsorted share of the library. Share with any hit: about 5.1%.

SMILES	Menin-MLL FL inh	Sfp inh	gsp antagonist	TRPV1 potentiator	gsp ag	D2 potentiator	ClpP mod
CCOC(=O)Nc1cc(OC)c(OC)cc1Cc1nccc2cc(OC)c(OC)cc12	5.8	6%	21%	-2	2%	-7	-0.7%
COc1ccc(C(=O)CN2C(=O)NC3(CCc4ccccc43)C2=O)cc1 (stereo not given)	nt	6%	-3%	0	-18%	-1	-0.7%
Cc1nc(N2CCOCC2)c2c(C)c(C(=O)Nc3ccc(F)cc3F)sc2n1	-3.3	-13%	-12%	15	5%[15.4 µM]	-1	nt
CC(C)(C(=O)c1ccccc1)/[N+]([O-])=C/c1ccccc1	nt	nt	2%	nt	-38%[inhibitor]	6	1.8%
CN1CCN(CCCNC(=O)c2ccc(Cn3c(=S)[nH]c4ccc(Br)cc4c3=O)cc2)CC1	-0.6	-4%	10%	1	2%[15.4 µM]	-4	-7.7%
COC(=O)c1ccc(C(c2c(N)n(Cc3ccccc3)c(=O)n(C)c2=O)N2CCOCC2)cc1 (stereo not given)	1.4	-12%	-3%	4	9%	-8	1.1%
CCOc1ccc(C(C)=O)cc1CN1C(=O)NC(C)(C2CC2)C1=O (stereo not given)	-0.3	8%	2%	27	2%	-2	nt
CCC(O)(CCN1CCCCC1)c1ccccc1 (stereo not given)	2.0	19%	10%	3	11%	-14	-0.7%
CCC(Sc1ccc(Cl)cc1)C(=O)Nc1nnc(-c2cccc([N+](=O)[O-])c2)s1 (stereo not given)	3.2	13%	-24%	15	5%	-3	-3.4%
CCCn1c(N)c(N(CCOC)C(=O)c2cc(-c3ccco3)nc3ccccc23)c(=O)[nH]c1=O	nt	45µM*	5%	-3	14%	-10	-22%
Oc1cccc(/C=N/Nc2ccc(Cl)nn2)c1	-11	-23%	-17%	7	?	-4	0.4%
COc1ccc(C(OC(=O)c2ccco2)C(=O)NCc2ccco2)cc1 (stereo not given)	2.4	-1%	5%	2	28%	-9	-0.7%
Cc1ccc(NC(=O)CN(CCc2ccccc2)S(C)(=O)=O)cc1	-0.6	13%	4%	14	-17%[15.4 µM]	-5	0.7%
COc1ccc(CNCC(C)NCc2ccc(OC)c(OC)c2)cc1OC (stereo not given)	-0.4	-7%	6%	-6	-3%	-29	1.6%
CCN(CC)c1ccc(C(=O)n2cnc3ccccc32)cc1	2.8	-7%	-16%	-1	5%	12	-20%
Cc1cc(Nc2ccccc2)cc(=O)n1C	nt	nt	0%	nt	-9%	-1	0.4%
Cc1cccc(-c2noc(CNC(=O)Nc3ccc(F)cc3)n2)c1	1.7	-3%	-13%	-17	-37%[inhibitor]	-4	-0.9%
NC(=O)CC(NC(=O)c1ccccc1)c1ccc(N2CCC(Br)CC2)c([N+](=O)[O-])c1 (stereo not given)	2.7	21%	3%	0	nt	0	0.5%
CC1CCC(NC(=O)C(NS(=O)(=O)c2cccc3nsnc23)C(C)C)CC1 (stereo not given)	nt	5%	1%	-8	-9%	-5	0.4%
N#Cc1cnc(NN)nc1	3.5	6.3µM*	3%	?	9%[15.4 µM]	-24	-12%

2 entries from above, as a markdown table:
| SMILES | Menin-MLL FL inh | Sfp inh | gsp antagonist | TRPV1 potentiator | gsp ag | D2 potentiator | ClpP mod |
| --- | --- | --- | --- | --- | --- | --- | --- |
| CCC(O)(CCN1CCCCC1)c1ccccc1 (stereo not given) | 2.0 | 19% | 10% | 3 | 11% | -14 | -0.7% |
| CCCn1c(N)c(N(CCOC)C(=O)c2cc(-c3ccco3)nc3ccccc23)c(=O)[nH]c1=O | nt | 45µM* | 5% | -3 | 14% | -10 | -22% |

(more compounds)
SMILES	Menin-MLL FL inh	Sfp inh	gsp antagonist	TRPV1 potentiator	gsp ag	D2 potentiator	ClpP mod
COc1cc(C)ccc1OCCCCN1CC(C)OC(C)C1 (stereo not given)	0.7	-20%	11%	4	3%	-44	-0.6%
CCN(C1CCCCC1)S(=O)(=O)c1c(C)n(C)c(=O)n(C)c1=O	nt	nt	4%	3	-2%	20	0.8%
Cc1ccccc1C(=O)NC(=S)NC1CCSC1=O (stereo not given)	3.8	7%	-2%	-1	-7%	-5	-0.7%
S=C1NCN(Cc2ccco2)CN1CCc1ccccc1	3.2	8%	7%	2	-1%	-7	0.7%
Cc1ccc2nc3c(nc2c1C)C(O)=C3O	5.9	-16%	-14%	9	-7%[15.4 µM]	-14	nt
Cc1nc2ccccc2c(N)c1C(=O)/C=C/c1ccccc1	5.9	4%	3%	17	?	-14	nt
COc1ccc(CCNC(=O)C2CCN(S(=O)(=O)N3CCC4(CC3)OCCO4)CC2)cc1OC	-1.7	1%	0%	-3	-22%	5	-1.1%
Cc1ccccc1C(=O)NNC(=S)NC(=O)c1cccs1	4.5	10%	2%	-21	-33%[inhibitor]	-12	0.6%
Cc1cc(O)c2c(c1)C(O)(C1OC(CO)C(O)C(O)C1O)c1cccc(O)c1C2=O (stereo not given)	-0.2	12%	3%	13	nt	2	-0.7%
CCCC1O[C@@H]2C[C@H]3[C@@H]4CCC5=CC(=O)C=C[C@]5(C)[C@H]4[C@@H](O)C[C@]3(C)[C@]2(C(=O)CO)O1 (stereo not given in full)	4.5	-18%	-30%	-4	nt	-1	1.1%
NC(=O)NC(=O)C[n+]1cccc(/C=N/O)c1	-3.1	16%	13%	10	7%[15.4 µM]	-3	nt
O=S(=O)(NCc1nc(-c2ccccc2)no1)c1ccc(F)cc1	nt	13%	0%	3	?	8	0.6%
COc1ccc(CN2C(=O)c3ccccc3C2C(=O)NCc2cccnc2)c(OC)c1 (stereo not given)	-1.1	21%	9%	-17	-51%[inhibitor]	-5	-3.9%
CCOC(=O)C1CCN(C(=O)C2CCCN(S(=O)(=O)c3ccc(OCC)c(Cl)c3)C2)CC1 (stereo not given)	nt	nt	?	5	-8%[15.4 µM]	-1	0.8%
CC1CCCN(S(=O)(=O)c2ccc(C(=O)Nc3nnc(C4CC4)o3)cc2)C1 (stereo not given)	-0.4	22%	-10%	0	-5%	-2	1.6%
COc1ccc(CC(=O)Nc2cc(=O)n(C)c(=O)n2C)cc1OC	-0.5	21%	-4%	6	5%[15.4 µM]	-12	-2.2%
CC1(C)CC(=O)C(C=NCC2CCN(C(=O)Cc3ccccc3)CC2)=C(O)C1	-0.5	14%	-13%	23	-35%[15.4 µM]	-3	nt
CN1CCN(c2ccc(Cl)cc2NC(=O)c2nn(-c3ccccc3)c(=O)c3ccccc23)CC1	0.1	-5%	6%	?	0%[15.4 µM]	-2	-2.2%
COc1cc(/C=C/C(=O)N2CCN(CC(O)COc3ccccc3)CC2)cc(OC)c1OC (stereo not given)	2.4	22%	4%	nt	4%	-35	?
CC(C)NC(=O)N(C)C[C@H]1Oc2ccc(NS(=O)(=O)c3ccc(F)cc3)cc2C(=O)N([C@H](C)CO)C[C@@H]1C	nt	nt	8%	nt	0%	-9	-1.4%

Full records as entered above:
CC1(C)CC(=O)C(C=NCC2CCN(C(=O)Cc3ccccc3)CC2)=C(O)C1 across the screens: Menin-MLL FL inh: -0.5; Sfp inh: 14%; gsp antagonist: -13%; TRPV1 potentiator: 23; gsp ag: -35%[15.4 µM]; D2 potentiator: -3; ClpP mod: nt
S=C1NCN(Cc2ccco2)CN1CCc1ccccc1 across the screens: Menin-MLL FL inh: 3.2; Sfp inh: 8%; gsp antagonist: 7%; TRPV1 potentiator: 2; gsp ag: -1%; D2 potentiator: -7; ClpP mod: 0.7%
Cc1nc2ccccc2c(N)c1C(=O)/C=C/c1ccccc1 across the screens: Menin-MLL FL inh: 5.9; Sfp inh: 4%; gsp antagonist: 3%; TRPV1 potentiator: 17; gsp ag: ?; D2 potentiator: -14; ClpP mod: nt

The list goes on.
SMILES	Menin-MLL FL inh	Sfp inh	gsp antagonist	TRPV1 potentiator	gsp ag	D2 potentiator	ClpP mod
CCOc1ccc(N(CC(=O)Nc2ccc(F)c(F)c2)S(=O)(=O)c2c(C)noc2C)cc1	2.9	8%	?	-9	15%	-7	1.7%
Cc1ccccc1OCCC(=O)OCC(=O)Nc1ccc(C)c(S(=O)(=O)N2CCCCC2)c1	nt	nt	nt	nt	?	-10	-1.2%
CCN(CC)c1ccc(/C=N/N2CCN(Cc3ccccc3Cl)CC2)c(O)c1	-0.4	-1%	10%	0	-2%	-1	1.1%
Cc1cccc2sc(NC(=O)CCNC(=O)c3ccco3)nc12	nt	nt	1%	-10	-5%[15.4 µM]	-1	nt
CN(C)CCN(Cc1cccs1)S(=O)(=O)c1csc(C(N)=O)c1	-8.2	1%	2%	-14	5%	-18	-6.0%
O=C(CSc1nnc(-c2ccco2)o1)NC1CCCCC1	0.3	1%	10%	5	-2%	-4	-0.5%
COCCN1C(=O)c2ccccc2C(C(=O)N2CCN(c3ccccc3)CC2)C1c1ccc(F)cc1 (stereo not given)	2.6	5%	-14%	0	5%	-19	-1.9%
COCCn1c(NC(=S)NC(=O)C23CC4CC(CC(C4)C2)C3)cc(=O)[nH]c1=O	0.5	-8%	-20%	-2	4%	-4	-13%
Cn1c(=O)c2cc(S(=O)(=O)NC(Cc3ccccc3)C(=O)NCC3CCCO3)ccc2n(C)c1=O (stereo not given)	-2.0	16%	6%	3	?	1	-7.3%
COc1ccc(-c2nc(C#N)c(NCc3ccccc3Cl)o2)cc1	5.0	-2%	2%	2	-2%	-4	35µM*
COc1ccc(C(=O)OCC(=O)NC2CC2)cc1F	nt	nt	11%	nt	0%	-8	nt
O=C(O)/C=C/c1cccc(NS(=O)(=O)c2ccccc2)c1	-2.4	4%	-10%	2	15%[15.4 µM]	-4	-2.8%
COc1ccccc1CNC(=O)COC(=O)c1ccc(C)s1	nt	nt	3%	10	?	3	1.3%
COc1ccc(NC(=O)CCNS(=O)(=O)c2ccc(NC(C)=O)cc2)cc1Cl	-1.5	17%	2%	-1	19%	-5	nt
CCOc1ccc(NC(=O)CSc2nc3ccsc3c(=O)n2CCCCCC(=O)O)cc1	nt	nt	nt	nt	15%	-12	-0.1%&-2.8%
CC(C)COc1ccc(C(=O)N2C(=O)c3ccc(N)cc3C2=O)cc1	1.2	2%	-3%	-7	8%[15.4 µM]	-1	nt
